# Screening data from PubChem BioAssay.
# DUX4 inh – DUX4-mediated transcription inhibition | 293T-iDUX4 ZSCAN4-Gaussia luciferase reporter, 24 h; stronger effect = lower value | activity change, negative = inhibition, % (concentration not given with the values) | actives 0.8% (n = 37,000) | AID 1224904;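 active = -10% or lower and over 25 points stronger than a control reporter; inconclusive = -10% or lower with a smaller gap; inactive = above -10%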;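 note: 0% = median of neutral control wells and -100% = median of positive control wells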
# DUX4 inh difference – recorded beside DUX4 inh, whose call it bears; Gaussia minus Italica difference, %; measured here: selective DUX4 reporter inhibition;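 worked out from the two reporters; negative = selective loss of the DUX4 reporter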
# DUX4 inh control – recorded beside DUX4 inh, whose call it bears; activity change, negative = inhibition, %; measured here: Italica tet-on control reporter;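 0 = neutral control and -100 = positive control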
# Starred values were filed as active, the others as inactive; ? = inconclusive; . = not tested or not shown; & = joins results of further samples.
DUX4 inh	canonical_smiles	DUX4 inh difference	DUX4 inh control
3	C[C@@H]1CN([C@@H](C)CO)C(=O)CCCn2nncc2CO[C@@H]1CN(C)C(=O)CCCN(C)C	1	2.4
2	C[C@@H]1CCCCO[C@@H](CN(C)CC2CCCCC2)[C@@H](C)CN([C@H](C)CO)C(=O)c2cc(NC(=O)CCC(F)(F)F)ccc2O1	1	0.8
-3	C[C@@H]1CN([C@H](C)CO)C(=O)Cc2cc(NC(=O)c3ccncc3)ccc2O[C@@H]1CN(C)C(=O)Nc1ccc(F)cc1	-2	-0.7
2	C[C@@H]1CN([C@H](C)CO)C(=O)c2cc(NC(=O)Nc3ccccc3)ccc2O[C@H]1CN(C)Cc1ccccc1	5	-3.0
?	CO[C@@H]1CN(C)C(=O)c2cc(NC(=O)Nc3cccc(F)c3)ccc2OC[C@H](C)N(C(=O)C2CC2)C[C@@H]1C	.	.
-3	CN1C(=O)c2cc(NC(=O)c3cnccn3)ccc2OC[C@@H]2O[C@@H](CC(=O)NCC3CCCCC3)CC[C@H]21	-7	3.4
7	CN(C)C(=O)c1ccc(-c2ccccc2[C@@H]2[C@H](C#N)N(C(=O)C3CCCCC3)[C@H]2CO)cc1	9	-2.0
-4	CN(C)c1ccc2c(c1)[C@H]1C[C@H](CC(=O)NCc3ccc(-c4ccccc4)cc3)O[C@H](CO)[C@H]1O2	5	-8.8
2	CS(=O)(=O)N1[C@H](C#N)[C@@H](c2ccc(C#CC3CC3)cc2)[C@H]1CO	2	0.6
-1	CC(C)NC(=O)Nc1ccc2c(c1)C(=O)N(C)[C@H]1CC[C@@H](CC(=O)NCC(F)(F)F)O[C@H]1CO2	2	-3.2
-8	O=C(c1ccccn1)N1CC(=O)N2[C@H](CO)[C@H](c3ccc(C#Cc4ccccc4)cc3)[C@H]2C1	-1	-7.3
1	C[C@@H]1CCCCO[C@@H](CN(C)S(=O)(=O)c2cccs2)[C@@H](C)CN([C@@H](C)CO)C(=O)c2cc(NC(=O)c3ccccc3)ccc2O1	4	-2.2

# Record cards (already shown).
# `CN(C)c1ccc2c(c1)[C@H]1C[C@H](CC(=O)NCc3ccc(-c4ccccc4)cc3)O[C@H](CO)[C@H]1O2` across the screens: DUX4 inh: -4; DUX4 inh difference: 5; DUX4 inh control: -8.8
# `C[C@@H]1CN([C@@H](C)CO)C(=O)CCCn2nncc2CO[C@@H]1CN(C)C(=O)CCCN(C)C` across the screens: DUX4 inh: 3; DUX4 inh difference: 1; DUX4 inh control: 2.4
# `O=C(c1ccccn1)N1CC(=O)N2[C@H](CO)[C@H](c3ccc(C#Cc4ccccc4)cc3)[C@H]2C1` across the screens: DUX4 inh: -8; DUX4 inh difference: -1; DUX4 inh control: -7.3

# Further entries:
DUX4 inh	canonical_smiles	DUX4 inh difference	DUX4 inh control
-2	O=C(Nc1cccc(F)c1)N1C[C@H]2[C@@H](c3ccccc31)[C@H](CO)N2C(=O)Cc1ccccn1	-3	0.7
3	OC[C@@H]1[C@@H](c2ccc(-c3ccccc3F)cc2)[C@@H]2CN(Cc3ccncc3)CCCCN12	14	-11
-1	COc1cccc(NC(=O)N[C@@H]2C=C[C@H](CC(=O)N3CCOCC3)O[C@H]2CO)c1	-2	1.1
-4	CC(=O)N(C)C[C@H]1[C@@H](c2ccc(-c3ccccc3)cc2)[C@@H](CO)N1C(=O)C1CC1	-4	-0.6
2	C[C@H]1CN([C@@H](C)CO)C(=O)c2cccc(NC(=O)c3ccc(-c4nccs4)cc3)c2O[C@H]1CN(C)C(=O)Nc1ccc(C(F)(F)F)cc1	1	1.0
6	O=C(CCN1CCCCC1)NCC[C@@H]1CC[C@H](NC(=O)C2CCOCC2)[C@H](CO)O1	5	0.8
16	C[C@H](CO)N1C[C@H](C)[C@@H](CN(C)C(=O)c2ccncc2)OCc2ccccc2-c2ccccc2C1=O	15	1.5
1	O=C(Nc1ccc2c(c1)[C@@H]1C[C@@H](CC(=O)N3CCCCC3)O[C@H](CO)[C@@H]1O2)NC1CCCCC1	-1	1.7
-6	CN1c2ccc(-c3cccc(F)c3)cc2[C@@H]2[C@@H](CCN2C(=O)CC2CC2)[C@@H]1CO	3	-8.8
-4	C[C@H]1CCCCO[C@H](CN(C)Cc2ccncc2)[C@@H](C)CN([C@@H](C)CO)C(=O)c2cc(NS(=O)(=O)c3ccc(Cl)cc3)ccc2O1	3	-6.8
0	COc1ccc(CN(C)C[C@H]2OCCCC[C@@H](C)Oc3ccc(NC(=O)C4CCCCC4)cc3C(=O)N([C@@H](C)CO)C[C@H]2C)cc1	-3	2.4
2	O=C(N[C@H]1CC[C@H](CC(=O)N2CCCCC2)O[C@H]1CO)c1ccccn1	0	1.6

# Other records follow:
DUX4 inh	canonical_smiles	DUX4 inh difference	DUX4 inh control
0	C[C@H]1CN([C@@H](C)CO)S(=O)(=O)c2ccc(Br)cc2O[C@H]1CN(C)C(=O)Cc1ccccc1	2	-2.0
-1	COc1ccccc1-c1ccc2n(c1=O)C[C@@H]1[C@@H](CO)[C@H](C(=O)NC3CCC3)N(C(=O)C3CCC3)[C@H]21	0	-0.5
0	CC(C)NC(=O)N(C)C[C@H]1Oc2ccc(NC(=O)Cc3ccccc3)cc2CC(=O)N([C@H](C)CO)C[C@H]1C	-3	2.3
1	N#C[C@H]1[C@@H](c2ccc(-c3ccc(F)cc3)cc2)[C@@H](CO)N1C(=O)Cc1ccccc1	-2	3.1
15	COc1ccccc1C#Cc1ccc2c(c1)[C@H]1[C@H](CCN1C(=O)c1ccncc1)[C@@H](CO)N2	12	3.0
-3	COc1cccc(CN2[C@@H]3CN(C(=O)CC(F)(F)F)c4ccccc4[C@@H]3[C@@H]2CO)c1	1	-3.9
3	COCC(=O)Nc1ccc2c(c1)C(=O)N(C)C[C@H](OC)[C@H](C)CN(C(C)=O)[C@H](C)CO2	2	0.8
-3	CN1C(=O)c2cc(NC(=O)Cc3ccccc3)ccc2OC[C@H]2O[C@H](CC(=O)NCc3ccc(Cl)cc3)CC[C@@H]21	-3	-0.1
-3	CC=Cc1ccc2n(c1=O)C[C@@H]1[C@@H](CO)[C@H](C(=O)NCCN3CCCCC3)N(C(C)=O)[C@H]21 (mixture of isomers)	-5	1.6
7	C[C@@H]1CN([C@H](C)CO)C(=O)c2cc(C#CC3CCCCC3)cnc2O[C@H]1CN(C)S(=O)(=O)c1ccccc1	7	0.7
0	COCC(=O)NC[C@@H]1[C@@H](c2ccccc2)[C@@H](CO)N1C(C)=O	1	-0.9
-2	COc1cccc(C#Cc2ccc([C@@H]3[C@@H](CO)N(C(=O)C4CCC4)[C@H]3C#N)cc2)c1	-1	-1.1

# Going on with the list.
DUX4 inh	canonical_smiles	DUX4 inh difference	DUX4 inh control
-3	N#C[C@@H]1[C@H](c2ccccc2)[C@H](CO)N1S(=O)(=O)c1cccc(F)c1	-4	1.5
-6	O=C(NC[C@@H]1[C@H](c2ccccc2)[C@H](CO)N1CC1CCCC1)c1ccccc1	0	-6.2
?	C/C=C/c1ccc([C@@H]2[C@H](CO)N3CCCCN(S(=O)(=O)c4cccc(C)c4)C[C@@H]23)cc1	.	.
4	NCC[C@H]1CC[C@@H](NS(=O)(=O)c2ccc(Cl)cc2)[C@H](CO)O1	0	3.9
-2	CN1C(=O)c2cc(NS(=O)(=O)c3cccc(F)c3)ccc2OC[C@@H]2O[C@@H](CC(=O)NCCN3CCCCC3)CC[C@@H]21	1	-3.1
2	CCCNC(=O)C[C@@H]1CC[C@H]2[C@H](COc3ccc(NC(=O)c4cccs4)cc3C(=O)N2C)O1	2	0.0
8	COCC(=O)N1CC2(CN(C(=O)NC(C)C)C2)c2c(n(C)c3cc(OC)ccc23)[C@@H]1CO	19	-11
-5	CCc1cnc(N2[C@H](C#N)[C@@H](c3ccc(C#CCC4CCCC4)cc3)[C@@H]2CO)s1	-8	2.9
3	COc1cccc(NC(=O)N2C[C@H](O)COC[C@H]3O[C@@H](CC(=O)NCc4ccccc4F)CC[C@@H]32)c1	-6	8.8
0	C[C@H](CO)N1C[C@H](C)[C@@H](CN(C)C(=O)Nc2ccccc2)Oc2ncc(-c3ccc(C#N)cc3)cc2C1=O	-2	1.8
16	COCC(=O)N1CC(=O)N2[C@H](CO)[C@@H](c3ccc(-c4cccnc4)cc3)[C@H]2C1	7	8.6
-3	COc1ccccc1NC(=O)N1C[C@H]2[C@@H](c3ccccc31)[C@H](CO)N2Cc1ccc2c(c1)OCO2	0	-2.6

# Later entries.
DUX4 inh	canonical_smiles	DUX4 inh difference	DUX4 inh control
?	COc1cccc(-c2ccc3c(c2)[C@@H]2[C@@H](CCN2S(=O)(=O)c2cccc(OC)c2)[C@H](CO)N3)c1	.	.
-5	CN(C)CCCNC(=O)[C@@H]1[C@@H](CO)[C@@H]2Cn3c(ccc(-c4ccccc4)c3=O)[C@@H]2N1C	-5	-0.3
?	O=C(C1CCC1)N1CC[C@@H]2[C@H]1c1cc(C#Cc3cccc(F)c3)ccc1N[C@@H]2CO	.	.
1	OC[C@H]1Nc2ccc(C#Cc3ccc(F)cc3)cc2[C@H]2[C@@H]1CCN2Cc1ccc2c(c1)OCO2	-4	4.8
-1	COc1cccc(C#Cc2ccc([C@@H]3[C@@H](CO)N(C(=O)C4CC4)[C@H]3C#N)cc2)c1	-1	0.2
3	C[C@H](CO)N1C[C@H](C)[C@H](CN(C)S(=O)(=O)c2cccs2)Oc2ncc(-c3cc4ccccc4o3)cc2C1=O	0	3.3
-3	CO[C@H]1CN(C)C(=O)c2ccc(NC(=O)Nc3ccccc3Cl)cc2OC[C@@H](C)NC[C@@H]1C	1	-3.4
1	COc1cccc(-c2ccc3n(c2=O)C[C@H]2[C@H](CO)[C@@H](C(=O)N4CCOCC4)N[C@@H]32)c1	2	-0.9
?	Cc1ccccc1S(=O)(=O)N1CC[C@@H]2[C@H]1c1cc(-c3cccc(C#N)c3)ccc1N[C@@H]2CO	.	.
4	Cc1ccc(S(=O)(=O)N(C)C[C@@H]2OCCCC[C@H](C)Oc3ccc(NC(=O)C4CCCCC4)cc3C(=O)N([C@H](C)CO)C[C@@H]2C)cc1	5	-1.3
2	C[C@@H]1CN([C@@H](C)CO)C(=O)c2cc(NS(=O)(=O)c3cn(C)cn3)ccc2O[C@@H](C)CCCCO[C@@H]1CN(C)C(=O)Nc1ccc(C(F)(F)F)cc1	0	2.5
6	O=C(C[C@H]1C=C[C@H](NC(=O)CN2CCOCC2)[C@H](CO)O1)NCc1cccc(F)c1	0	6.3

# More compounds:
DUX4 inh	canonical_smiles	DUX4 inh difference	DUX4 inh control
-2	O=C(NCCc1ccccc1)[C@@H]1[C@@H](CO)[C@@H]2Cn3c(cccc3=O)[C@H]1N2CC1CC1	0	-2.3
0	CCCNC(=O)N(C)C[C@H]1[C@H](c2ccccc2)[C@@H](CO)N1C(=O)c1ccccc1	-2	2.4
-1	O=C1C[C@H](c2ccccc2)C(=O)N[C@@H](c2ccccc2)C/C=C\C[C@@H](c2ccccc2)N1	-1	0.5
-6	CC(=O)N(C[C@H]1N[C@H](CO)[C@@H]1c1ccccc1)C(C)C	-2	-4.0
-3	CCCNC(=O)[C@H]1[C@H](CO)[C@H]2Cn3c(ccc(C4=CCCC4)c3=O)[C@@H]1N2CCC(F)(F)F	1	-4.1
5	C[C@@H]1CN([C@H](C)CO)C(=O)c2c(c3ccccc3n2C)-c2ccccc2CO[C@@H]1CN(C)C(=O)Nc1ccnc(N2CCOCC2)c1	-2	6.2
2	C[C@@H]1CN([C@H](C)CO)C(=O)c2cccc(NC(=O)c3ccncc3)c2O[C@@H]1CN(C)Cc1ccc2c(c1)OCO2	-1	3.2
-2	O=S(=O)(c1ccc(F)cc1)N1C[C@@H]2[C@H](c3ccccc31)[C@@H](CO)N2Cc1ccccc1Cl	0	-2.5
1	CCCN(C)C[C@H]1OCCCC[C@@H](C)Oc2ccc(NC(=O)CCCN(C)C)cc2C(=O)N([C@@H](C)CO)C[C@@H]1C	0	0.7
1	CN(C)C(=O)c1ccc(-c2ccc([C@@H]3[C@H](CO)N4CCCCN(Cc5cncnc5)C[C@@H]34)cc2)cc1	1	-0.3
2	COc1ccc([C@H]2C/C=C\C[C@@H](c3ccc4c(c3)OCO4)NC(=O)[C@@H](c3ccccc3)CC(=O)N2)c(OC)c1	0	2.4
2	N#C[C@@H]1[C@H](c2ccc(C3=CCCC3)cc2)[C@H](CO)N1C(=O)C1CCOCC1	-1	2.1

# Going on with the list.
DUX4 inh	canonical_smiles	DUX4 inh difference	DUX4 inh control
3&6	O=S(=O)(c1ccccc1F)N1[C@@H]2CNC[C@H]1C2c1ccc(-c2cccc(F)c2)cc1 (some centres not stated)	6&7	-2.2&-0.6
1	Cc1ccc(S(=O)(=O)N[C@@H]2C=C[C@@H](CC(=O)NCc3ccc(Cl)c(Cl)c3)O[C@@H]2CO)cc1	-2	3.4
0	N#C[C@@H]1[C@@H](c2ccc(C#Cc3cccnc3)cc2)[C@@H](CO)N1C(=O)C1CCC1	0	0.4
0	N#C[C@@H]1[C@H](c2ccc(C3=CCCCC3)cc2)[C@H](CO)N1C(=O)NC1CCCC1	-2	1.8
-5	COc1cccc(-c2ccc3c(c2)[C@@H]2[C@@H](CCN2C(=O)Cc2ccncc2)[C@@H](CO)N3)c1	-18	13
3	C[C@H](CO)N1C[C@H](C)[C@H](CN(C)Cc2cccc(C(=O)O)c2)OCc2ccccc2-c2c(n(C)c3ccccc23)C1=O	5	-1.8

# Quoted at random: 2 records from the list, in no set order.
DUX4 inh	canonical_smiles	DUX4 inh difference	DUX4 inh control
3&6	O=S(=O)(c1ccccc1F)N1[C@@H]2CNC[C@H]1C2c1ccc(-c2cccc(F)c2)cc1 (some centres not stated)	6&7	-2.2&-0.6
1	Cc1ccc(S(=O)(=O)N[C@@H]2C=C[C@@H](CC(=O)NCc3ccc(Cl)c(Cl)c3)O[C@@H]2CO)cc1	-2	3.4

# 2 of the compounds above, with tabs:
mol	DUX4 inh	DUX4 inh difference	DUX4 inh control
N#C[C@@H]1[C@@H](c2ccc(C#Cc3cccnc3)cc2)[C@@H](CO)N1C(=O)C1CCC1	0	0	0.4
N#C[C@@H]1[C@H](c2ccc(C3=CCCCC3)cc2)[C@H](CO)N1C(=O)NC1CCCC1	0	-2	1.8

# Only part of the results is shown; count on the stated rates, not on these rows.
